ugtP null kill – compounds lethal to S. aureus RN4220 ugtP deletion mutant. OD600 growth, 16 h; some inactives read as strong as hits. growth inhibition, % (concentration not given with the values). 330,000 compounds, 0.54% hits. AID 1259309;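 active = z-score under -3 and OD600 up to 0.15 on both plates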;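 note: plate controls were untreated wells for no effect and antibiotic for full effect; wells of about 80 µL received 100 nL stock; the first replicate is given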
RN4220 kill – S. aureus RN4220 growth inhibition; OD600, 16 h; inhibition, % (no concentration beside the values); 330,000 compounds, 0.33% hits; AID 1259311;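 active = z-score of -3 or lower and OD600 up to 0.18 on both plates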;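 note: plate controls were untreated cells for no effect and reference antibiotic for full effect; stock transfer was 100 nL into about 80 µL; one replicate is shown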
PrP UTR inh – inhibition of PrP 5' UTR reporter expression. cell-based PrP 5' UTR mRNA reporter, plate reader. 340,000 compounds, 0.35% hits. inhibition, % (no concentration beside the values);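 active = every replicate at 50% or more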;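 note: 0 = median of the neutral control wells; tested in H4 reporter cells; numbers are from one replicate; inactives centre near -14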
BJeLR lethal – kills HRASV12-expressing BJeLR cells | 300,000 compounds, 0.17% hits | inhibition, % (concentration not given with the values) | BJeLR (HRASV12) viability, CellTiter-Glo ATP luminescence, 48 h; reference of the scale not given here;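 active = replicate mean above 50%; inconclusive = above 50% but judged a plate artefact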;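 note: 50 nL library stock added to about 25 µL; numbers are from one replicate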
Bead autofluor – flagged as autofluorescent in microsphere protease counterscreen; compound autofluorescence counterscreen, microsphere flow cytometry; active compounds read high; fluorescence intensity (no concentration beside the values); 360,000 compounds, 3.1% hits; AID 624483;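 active = at least 3 SD above the mean of all compounds, about 16000 in these data; inconclusive = too few beads counted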;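 note: 100 nL of 1 mM stock went into each well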
Mtb hypoxia rep – Mtb hypoxia fluorescent reporter inhibition | M. tuberculosis hypoxia-regulated fluorescent reporter, fluorescence | fluorescence inhibition, % (test concentration not listed) | 300,000 compounds, 0.1% hits;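 active = 35 to 45% if threefold the growth effect, above 45% if 1.5-fold the growth effect; inactive = the rest, general growth blockers included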;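 note: wells of about 50 µL received 100 nL stock; 0% = vehicle wells and 100% = reference inhibitor wells; whole bacteria with a GFP reporter of the hypoxia response; strong numbers were not always called active; many hits fall short of the cut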
Mtb hypoxia rep growth – also measured in Mtb hypoxia rep; calls as there; growth inhibition, %; measured here: M. tuberculosis growth (absorbance);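 0% = vehicle and 100% = reference antibiotic; read after six days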
Starred values were filed as active, the others as inactive.

Start of the data: the first 4 compounds, to show the layout:
O=C1Nc2ccccc2N(O)N1c1ccc(S(=O)(=O)N2CCOCC2)cc1 was read as ugtP null kill 10.5, RN4220 kill 1.5, PrP UTR inh -15.1, BJeLR lethal 2.5, Bead autofluor 2431, Mtb hypoxia rep 6.4 and Mtb hypoxia rep growth -7.2.
`CCOC(=O)Cc1nnc(NCc2ccccc2)c2ccccc12` gave ugtP null kill 10.1, RN4220 kill 6.9, PrP UTR inh -28.8, BJeLR lethal 2.6, Bead autofluor 3546, Mtb hypoxia rep 6.2 and Mtb hypoxia rep growth -0.6.
`Cc1c(NC(=O)c2cccc(NC(=O)COc3ccccc3)c2)c(=O)n(-c2ccccc2)n1C` gave ugtP null kill 3.6, RN4220 kill 2.9, PrP UTR inh -2.9, Bead autofluor 3980, Mtb hypoxia rep 3.6 and Mtb hypoxia rep growth 0.1.
`CCOC(=O)CSc1nc2ccccc2c(=O)n1CC1CCCO1` (centres undefined) gave ugtP null kill 1.8, RN4220 kill 1.7, PrP UTR inh -11.0, BJeLR lethal 3.5, Bead autofluor inconclusive, Mtb hypoxia rep 6.7 and Mtb hypoxia rep growth 16.7.

Results (from the top)
O=C1Nc2ccccc2N(O)N1c1ccc(S(=O)(=O)N2CCOCC2)cc1 was read as ugtP null kill 10.5, RN4220 kill 1.5, PrP UTR inh -15.1, BJeLR lethal 2.5, Bead autofluor 2431, Mtb hypoxia rep 6.4 and Mtb hypoxia rep growth -7.2.
`CCOC(=O)Cc1nnc(NCc2ccccc2)c2ccccc12` gave ugtP null kill 10.1, RN4220 kill 6.9, PrP UTR inh -28.8, BJeLR lethal 2.6, Bead autofluor 3546, Mtb hypoxia rep 6.2 and Mtb hypoxia rep growth -0.6.
`Cc1c(NC(=O)c2cccc(NC(=O)COc3ccccc3)c2)c(=O)n(-c2ccccc2)n1C` gave ugtP null kill 3.6, RN4220 kill 2.9, PrP UTR inh -2.9, Bead autofluor 3980, Mtb hypoxia rep 3.6 and Mtb hypoxia rep growth 0.1.
`CCOC(=O)CSc1nc2ccccc2c(=O)n1CC1CCCO1` (centres undefined) gave ugtP null kill 1.8, RN4220 kill 1.7, PrP UTR inh -11.0, BJeLR lethal 3.5, Bead autofluor inconclusive, Mtb hypoxia rep 6.7 and Mtb hypoxia rep growth 16.7.
Screening Cc1ccc(-c2cc(C(=O)N/N=C/c3c[nH]c4ccccc34)n[nH]2)o1 returned PrP UTR inh -12.9, BJeLR lethal 4.4 and Bead autofluor 2073.
For CC(C)CN1C(=O)NC(NC(=O)c2cccnc2)(C(F)(F)F)C1=O (centres undefined) the results were ugtP null kill 5.0, RN4220 kill 4.4, Bead autofluor 10915, Mtb hypoxia rep 15.4 and Mtb hypoxia rep growth 15.0.
Screening Cc1ccc(C(C(=O)NCC2CCCO2)N(C(=O)c2snc(C(N)=O)c2N)c2ccccc2F)o1 (centres undefined) returned ugtP null kill 1.8, RN4220 kill 1.9, PrP UTR inh -23.4, BJeLR lethal -6.6, Bead autofluor 6049, Mtb hypoxia rep -7.0 and Mtb hypoxia rep growth 0.6.
Screening CCOC(=O)C1CCN(Cc2ccc(O)c(OC)c2)CC1 returned ugtP null kill -4.9, RN4220 kill 4.6, PrP UTR inh -4.9, BJeLR lethal -10.2, Bead autofluor inconclusive, Mtb hypoxia rep 12.7 and Mtb hypoxia rep growth 7.9.
For O=C(NC(=S)Nc1ccc(F)cc1)C1CCCCC1 the results were ugtP null kill 19.8, RN4220 kill 5.4, PrP UTR inh -44.6, BJeLR lethal 6.6, Bead autofluor 5289, Mtb hypoxia rep 24.0 and Mtb hypoxia rep growth 22.9.
O=C(c1cc(COc2cccc(C(F)(F)F)c2)on1)N1C[C@@H]2CCC[C@H]1C2 was read as ugtP null kill -8.4, RN4220 kill 3.9, PrP UTR inh -51.0, BJeLR lethal 2.7, Bead autofluor 5145, Mtb hypoxia rep 17.0 and Mtb hypoxia rep growth 11.2.
Screening CCN(C(=O)Cn1c(=O)oc2ccccc21)c1c(N)n(Cc2ccccc2)c(=O)[nH]c1=O returned ugtP null kill -1.9, RN4220 kill -0.6, PrP UTR inh 6.2, Bead autofluor 3441, Mtb hypoxia rep -14.4 and Mtb hypoxia rep growth 0.6.
Screening CCS(=O)(=O)NCCc1csc(-c2cccnc2)n1 returned ugtP null kill -0.8, RN4220 kill -14.7, PrP UTR inh -8.4, BJeLR lethal 0.8, Bead autofluor 5888, Mtb hypoxia rep -0.2 and Mtb hypoxia rep growth -3.7.
CN1C(=O)C2(C(C#N)=C(N)N(c3cc(Cl)cc(Cl)c3)C3=C2C(=O)CC(C)(C)C3)c2ccccc21 (centres undefined) was read as ugtP null kill -7.5, RN4220 kill 2.9, PrP UTR inh -22.1, BJeLR lethal 3.8, Bead autofluor 2551, Mtb hypoxia rep 3.1 and Mtb hypoxia rep growth 3.6.
Screening O=C(CN1C(=O)c2ccccc2C1=O)N1CCN=C1c1ccccc1 returned ugtP null kill 7.1, RN4220 kill 4.5, PrP UTR inh 3.1, BJeLR lethal -2.0, Bead autofluor 4062, Mtb hypoxia rep 14.2 and Mtb hypoxia rep growth 10.0.
`CN(C(=O)c1ccc(NC(=O)Cc2ccc(NC(=O)C3CCN(C(=O)c4ccccc4)CC3)cc2)cc1)C1CCCC1` gave ugtP null kill 0.3, RN4220 kill 5.8, PrP UTR inh -18.4, Bead autofluor 4362, Mtb hypoxia rep -5.7 and Mtb hypoxia rep growth 3.4.
CCOC(=O)C1=CN(Cc2ccco2)S(=O)(=O)NC1c1ccc(Br)cc1F (centres undefined) was read as ugtP null kill 13.7, RN4220 kill 4.7, PrP UTR inh -10.1, Bead autofluor 2894, Mtb hypoxia rep 3.4 and Mtb hypoxia rep growth 3.8.
For O=C(c1cc2ccc([N+](=O)[O-])cc2oc1=O)N1CCOCC1 the results were ugtP null kill 7.5, RN4220 kill 4.5, PrP UTR inh -20.4, BJeLR lethal -1.0, Bead autofluor 4582, Mtb hypoxia rep 10.5 and Mtb hypoxia rep growth 3.9.
Cc1cc(=O)oc2cc(OCC(=O)OCC(=O)Nc3ccc(C(C)C)cc3)ccc12 was read as ugtP null kill -3.9, RN4220 kill 2.1, PrP UTR inh -24.9, BJeLR lethal 8.4, Bead autofluor 2222, Mtb hypoxia rep 5.7 and Mtb hypoxia rep growth -1.3.
CCOC(=O)C1CCN(C(=O)CN2C(=O)c3ccccc3S2(=O)=O)CC1 was read as ugtP null kill -1.3, RN4220 kill -2.8, PrP UTR inh -20.9, BJeLR lethal -12.2, Bead autofluor inconclusive, Mtb hypoxia rep 0.5 and Mtb hypoxia rep growth -3.9.
For O=C(O)c1ccc(NN=C/C=C/c2ccccc2)cc1 the results were ugtP null kill 6.9, RN4220 kill 19.0, Mtb hypoxia rep 3.1 and Mtb hypoxia rep growth 0.2.
Screening COc1ccc(N2C(=O)NC(NC(=O)C(C)(C)C)(C(F)(F)F)C2=O)cc1 (centres undefined) returned ugtP null kill 1.8, RN4220 kill 3.6, PrP UTR inh -18.1, BJeLR lethal 9.9, Bead autofluor 5134, Mtb hypoxia rep 5.0 and Mtb hypoxia rep growth -1.5.
For O=[N+]([O-])c1ncccc1Oc1nc(-c2cccnc2)nc2ccccc12 the results were ugtP null kill 10.8, RN4220 kill 1.4, PrP UTR inh -16.6 and Bead autofluor 4616.
`O=C1Nc2ccccc2C1=NN=Cc1ccc(O)c(O)c1` gave ugtP null kill -4.9, RN4220 kill 2.6, Mtb hypoxia rep 10.7 and Mtb hypoxia rep growth -15.9.
`CCOC(=O)C1=C(CN2CCN(C(=O)c3ccco3)CC2)NC(=O)NC1c1ccc(OC(C)C)cc1` (centres undefined) gave ugtP null kill 4.8, RN4220 kill 0.8, PrP UTR inh -21.5, BJeLR lethal -3.2, Bead autofluor 5311, Mtb hypoxia rep 0.4 and Mtb hypoxia rep growth 6.2.
For NS(=O)(=O)c1ccc(NC(=O)c2ccc(S(=O)(=O)N3CCOCC3)o2)cc1 the results were ugtP null kill 1.2, RN4220 kill 1.9, BJeLR lethal -3.0, Mtb hypoxia rep 9.0 and Mtb hypoxia rep growth 4.0.
For COC(=O)c1sccc1NC(=O)C1CCCCC1C(=O)O (centres undefined) the results were ugtP null kill 5.1, RN4220 kill 3.4, PrP UTR inh -43.1, BJeLR lethal 2.7, Bead autofluor 4212, Mtb hypoxia rep 14.9 and Mtb hypoxia rep growth 7.4.
`CNC(=O)c1sc(-c2ccccc2)nc1C` gave ugtP null kill -2.6, RN4220 kill -9.4, PrP UTR inh -4.0, BJeLR lethal 3.0, Bead autofluor 2996, Mtb hypoxia rep 19.0 and Mtb hypoxia rep growth 5.7.
COC(=O)CNC(=O)C12CC3CC(C1)CC(c1ccc(C)cc1)(C3)C2 was read as ugtP null kill 2.5, RN4220 kill 9.9, PrP UTR inh 77.8*, BJeLR lethal -14.7, Bead autofluor 4410, Mtb hypoxia rep 7.8 and Mtb hypoxia rep growth -0.8.
`CCC(C)[C@H](NC(=O)NCCC1=CCCCC1)C(=O)OC` (some centres undefined) gave ugtP null kill 10.2, RN4220 kill 1.7, PrP UTR inh -25.8, BJeLR lethal -7.7, Bead autofluor 3809, Mtb hypoxia rep 9.0 and Mtb hypoxia rep growth 6.4.
For CCCOc1ccc(C(=O)NNC(=O)CCNC(=O)c2ccccc2Cl)cc1OC the results were ugtP null kill -1.6, RN4220 kill -4.9, PrP UTR inh -13.3, BJeLR lethal -12.7, Bead autofluor 6072, Mtb hypoxia rep -8.7 and Mtb hypoxia rep growth 2.4.
`Cc1cccc(-n2c(O)c(C=NCCN3CCNCC3)c(=O)[nH]c2=S)c1` gave ugtP null kill 20.5, RN4220 kill 0.3, PrP UTR inh -22.5, BJeLR lethal -0.6, Bead autofluor 3421, Mtb hypoxia rep 12.5 and Mtb hypoxia rep growth 11.8.
CCCCOc1c(Br)cc(/C=N/O)cc1OCC was read as PrP UTR inh -17.3, BJeLR lethal -14.9 and Bead autofluor 9391.
`CCC(=O)c1ccc(OCC(=O)O)c(OC)c1` gave ugtP null kill 4.1, RN4220 kill 1.8, PrP UTR inh -15.0, BJeLR lethal -2.6, Bead autofluor 4412, Mtb hypoxia rep 5.5 and Mtb hypoxia rep growth 2.0.
Screening CSc1ccccc1C(=O)Nc1nc2ccccc2[nH]1 returned ugtP null kill 1.9, RN4220 kill -2.2, PrP UTR inh -90.8, BJeLR lethal -16.1, Bead autofluor 3773, Mtb hypoxia rep -13.6 and Mtb hypoxia rep growth -4.6.
`CC(Oc1ccc(Cl)cc1)c1ccnn1S(=O)(=O)c1ccccc1` (centres undefined) gave ugtP null kill 19.7, RN4220 kill 3.8, PrP UTR inh -11.4, BJeLR lethal 10.2, Bead autofluor 3940, Mtb hypoxia rep 18.1 and Mtb hypoxia rep growth 1.1.
Screening O=C(CN1CCOCC1)N1CCOCC1 returned ugtP null kill -2.1, RN4220 kill -0.4, PrP UTR inh -10.3, Bead autofluor 2831, Mtb hypoxia rep 7.9 and Mtb hypoxia rep growth 2.4.
For CN1CCN(c2ccc(N)cc2Cl)CC1 the results were ugtP null kill 7.2, RN4220 kill 0.4, PrP UTR inh -18.7, BJeLR lethal 6.3, Bead autofluor 2448, Mtb hypoxia rep 9.6 and Mtb hypoxia rep growth -1.5.
OCCN(Cc1ccccc1)Cc1ccc(Cl)cc1Cl was read as ugtP null kill -8.6, RN4220 kill 1.9, PrP UTR inh -7.6, BJeLR lethal -3.5, Bead autofluor 6327, Mtb hypoxia rep 3.9 and Mtb hypoxia rep growth 0.3.
For O=C(NNC(=O)c1cc(-c2cccnc2)nc2ccccc12)Nc1ccc(Cl)cc1 the results were ugtP null kill 5.4, RN4220 kill -15.8, PrP UTR inh -18.8, BJeLR lethal -4.1, Bead autofluor 3959, Mtb hypoxia rep 11.2 and Mtb hypoxia rep growth 1.1.
For CCN(CC)S(=O)(=O)c1ccc(F)cc1 the results were ugtP null kill -2.8, RN4220 kill -0.7, PrP UTR inh 5.1, BJeLR lethal 1.6, Bead autofluor 17034*, Mtb hypoxia rep 2.7 and Mtb hypoxia rep growth 10.2.
For O=C(Nc1ccc(F)c(Cl)c1)C1CCN(c2ncnc3c2nc2n3CCCCC2)CC1 the results were ugtP null kill -3.9, RN4220 kill -3.1, PrP UTR inh -13.5, BJeLR lethal -8.5, Bead autofluor 5721, Mtb hypoxia rep -1.0 and Mtb hypoxia rep growth -5.1.
CC(Cc1ccccc1Sc1ccc(O)cc1)N(C)C (centres undefined) was read as ugtP null kill -2.1, RN4220 kill -8.1, PrP UTR inh -8.0, BJeLR lethal -2.0, Bead autofluor 3530, Mtb hypoxia rep 2.4 and Mtb hypoxia rep growth 4.7.

The order is random; about 4% have a hit in one of these screens.
